# UCH37 inh – inhibitors of human deubiquitinating enzyme UCH37; inhibition, % (concentration not given with the values); purified proteasome/UCH37, Ub-AMC cleavage fluorescence; Q9Y5K5; AID 588478; 0.33% of 330,000 active;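 active = mean of two replicates above 20%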;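 also: 0% = compound-free wells with enzyme and 100% = wells lacking proteasome; stock transfer was 100 nL into about 20 µL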
#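 Schedule: 30 min plus 25 min, room temperature / Material: human UCH37 within purified proteasomes / Technique: AMC fluorescence intensity at 355/460 nm / Buffer or medium: pH 7.4 Tris-HCl (50 mM) with ovalbumin, ATP-MgCl2, DTT / Controls: wells without proteasome as full block, compound-free enzyme plus substrate as uninhibited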
# B2AR ag – human beta-2 adrenergic receptor agonism by FAP. P07550. Am2.2-beta2AR cells, FAP receptor internalization, flow cytometry; reference of the scale not given here. response, % (concentration not given with the values). 0.43% of 340,000 active. AID 504454;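 active = response above a set limit, near 3 SD of response in nonfluorescent compounds, cut at about 42% in these data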;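 also: stock transfer was 100 nL into about 11 µL; a reference agonist was the positive control; negative values mostly stem from fluorescent compounds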
# Target sequence (P07550 whole entry, looked up): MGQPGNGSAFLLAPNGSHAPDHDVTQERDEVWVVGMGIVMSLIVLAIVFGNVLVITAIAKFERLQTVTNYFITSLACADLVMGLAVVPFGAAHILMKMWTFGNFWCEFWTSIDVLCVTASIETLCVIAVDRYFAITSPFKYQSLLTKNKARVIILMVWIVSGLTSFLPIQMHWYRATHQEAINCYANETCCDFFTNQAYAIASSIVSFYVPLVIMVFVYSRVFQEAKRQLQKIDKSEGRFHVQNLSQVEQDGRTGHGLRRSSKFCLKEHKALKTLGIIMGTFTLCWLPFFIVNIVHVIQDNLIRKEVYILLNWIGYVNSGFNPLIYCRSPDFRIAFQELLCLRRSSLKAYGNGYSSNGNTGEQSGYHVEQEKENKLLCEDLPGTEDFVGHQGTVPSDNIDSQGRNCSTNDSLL
# ALR H2O2 inh – human ALR oxidase inhibition via reduced H2O2; P55789; purified ALR, DTT oxidation, H2O2 HRP-luminol luminescence; inhibition, % (concentration not given with the values); 3.8% of 290,000 active; AID 485317;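 active = mean and each replicate at 75% or more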;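 also: stock transfer was 7.5 nL into about 7.5 µL; 0% = neutral wells and 100% = wells with inactivated enzyme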
# LANA-H2A inh – blocks KSHV LANA binding to histone H2A/H2B; 0.6% of 320,000 active; cell-free LANA-H2A/H2B peptide, fluorescence polarization; inhibition, % (concentration not given with the values); Q9QR71; in the data active = inhibition mostly above about 10%, no sharp cut-off; inactive = mostly below about 6.7%;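 also: stock transfer was 7.5 nL into about 10 µL; 0% = median of vehicle wells and 100% = median of positive control wells; one replicate is shown; the record names a cut of 25% in any replicate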
# HNF4A DNA FP – change in binding of human HNF4 alpha to DNA; 0.3% of 360,000 active; HNF4a-FITC DNA binding, fluorescence polarization, 1 h; activity change, % at 10 µM; P41235; in the data active = activity change above about 30%, passing the limit was not always enough;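 also: controls were the assay level and a saturating level of protein; the project sought stronger binding though the title names inhibitors; some compounds called inactive have numbers as strong as hits; positive values seem to mean higher polarization but the record does not say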
# FGF22 binding – shifts melting point of recombinant human FGF22; calls only at 9.99 µM; AID 651658; Q9HCT0; recombinant FGF22 thermal shift, SYPRO orange fluorescence; percent of sucrose octasulfate shift, DMSO zero; 1.5% of 340,000 active;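 active = melting point raised past a set limit in the mean and every replicate; three in four hits are not shown here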
# Target sequence (Q9HCT0 whole entry, looked up): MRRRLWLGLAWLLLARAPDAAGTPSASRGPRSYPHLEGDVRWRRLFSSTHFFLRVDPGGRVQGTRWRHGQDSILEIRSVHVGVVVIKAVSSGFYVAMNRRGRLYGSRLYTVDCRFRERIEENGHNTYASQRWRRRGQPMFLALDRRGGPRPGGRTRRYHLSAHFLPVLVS
# E coli growth – E. coli growth inhibition. 0.21% of 330,000 active. OD600 absorbance (test concentration not listed). Escherichia coli growth, OD600, 23 h; active compounds read low;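 active = OD600 absorbance below the run mean of sample wells minus 3.6 SD, in any replicate, cut at about 0.56 in these data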;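 also: stock transfer was 300 nL into about 60 µL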
# The depositor's hits bear a star; i = inactive; . = not tested or not shown.
# Values run as follows: UCH37 inh | B2AR ag | ALR H2O2 inh | LANA-H2A inh | HNF4A DNA FP | FGF22 binding | E coli growth
CC(C)(C)n1nnnc1C(c1cccs1)N(Cc1cccnc1)Cc1ccccc1Cl (stereo unspecified)
    0.6 | 1 | -8 | 3.3 | -1.3 | . | 0.75
Cc1ccc(COc2ccccc2-c2cc(C(=O)N/N=C/c3cccnc3)[nH]n2)cc1
    . | 12 | 12 | -0.1 | 7.0 | i | .
CN(C)c1nc(SCCOC(=O)COc2ccc(Cl)cc2Cl)nc(N(C)C)n1
    1.1 | 3 | -3 | -1.8 | -4.2 | . | 0.71
CCC(Sc1nc(C)cc(=O)[nH]1)C(=O)Nc1ccc(Cl)cn1 (stereo unspecified)
    7.0 | 2 | -12 | 4.7 | 10 | i | 0.74
Cc1c(O)ccoc1=O
    0.7 | 5 | -23 | -0.7 | -0.2 | i | 0.66
CSc1ccc(S(=O)(=O)NCC(=O)OCC(=O)N2CCCC2=O)cc1[N+](=O)[O-]
    1.2 | 11 | . | . | 1.7 | i | 0.67
Cc1[nH]c2ccccc2c1/C=N/NC(=O)CNC(=O)c1ccccc1
    . | -1 | -14 | 9.9 | 0.8 | i | .
NS(=O)(=O)c1ccc(CCNCc2cc(Cl)ccc2OCc2ccccc2)cc1
    3.3 | 8 | -25 | -6.9 | 1.1 | i | 0.66
Cc1ccc(OCC(=O)NCCN2CCCC2)cc1
    3.9 | -4 | -1 | 0.7 | 2.2 | . | 0.65
NC1=NC(=O)C2(COC(c3cccc([N+](=O)[O-])c3)OC2)S1 (stereo unspecified)
    1.4 | -2 | -2 | 4.1 | 2.6 | i | 0.68
CCOc1ccc(NC(=O)c2ccccc2NC(=O)c2cccnc2)cc1
    1.5 | 4 | -5 | 1.2 | 0.3 | i | 0.69
COc1ccc(Cl)cc1NS(=O)(=O)c1ccc2c(c1)NC(=O)CCS2
    -0.4 | -2 | 2 | -4.7 | 3.7 | i | 0.73
COc1ccc(C(=O)c2c(-c3ccc(OC)cc3)oc3ccccc23)cc1
    4.8 | -10 | 0 | 9.1 | 0.4 | i | 0.81
O=C(NCCCn1ccnc1)C1CC(c2ccccc2Cl)=NO1 (stereo unspecified)
    5.7 | 1 | -3 | 1.9 | 1.1 | i | 0.66
Cc1nc(C)c(C(=O)NNC(=O)Nc2ccc(Cl)cc2)s1
    1.9 | -3 | 58 | -1.3 | 0.7 | i | 0.66
CN1CCN(C(=O)CN(C)S(=O)(=O)c2ccc(F)cc2)CC1
    2.4 | -1 | -8 | -10 | 2.9 | i | 0.66
Cc1nnc(NC(=O)CSc2nnc(-c3ccccc3)n2C)s1
    1.8 | 3 | -6 | 1.1 | -1.2 | i | 0.68
O=C(CCC(=O)N(c1ccccc1)C(C(=O)NC1CCCC1)c1ccncc1)Nc1cccnc1 (stereo unspecified)
    3.9 | -1 | -3 | 1.6 | -3.0 | . | 0.72
CCCCn1c(=O)[nH]c(=O)c2c1nc(-c1ccsc1)n2Cc1ccccc1
    -1.0 | -13 | -11 | 1.8 | 0.1 | . | 0.69
O=C(CSc1ccc2c(c1)OCCO2)Nc1ccc(Br)cc1
    2.4 | -3 | 54 | 7.7 | 0.2 | . | 0.7
COc1ccccc1-c1noc(CCCC(=O)NC2CCCCC2)n1
    4.3 | -5 | 6 | -3.6 | 4.1 | i | 0.7

# Another view of some results above.
Molecule	UCH37 inh	B2AR ag	ALR H2O2 inh	LANA-H2A inh	HNF4A DNA FP	FGF22 binding	E coli growth
Cc1nnc(NC(=O)CSc2nnc(-c3ccccc3)n2C)s1	1.8	3	-6	1.1	-1.2	i	0.68
O=C(CCC(=O)N(c1ccccc1)C(C(=O)NC1CCCC1)c1ccncc1)Nc1cccnc1 (stereo unspecified)	3.9	-1	-3	1.6	-3.0	.	0.72
CCCCn1c(=O)[nH]c(=O)c2c1nc(-c1ccsc1)n2Cc1ccccc1	-1.0	-13	-11	1.8	0.1	.	0.69
O=C(CSc1ccc2c(c1)OCCO2)Nc1ccc(Br)cc1	2.4	-3	54	7.7	0.2	.	0.7

# 2 entries picked at random from those above:
# Values run as follows: UCH37 inh | B2AR ag | ALR H2O2 inh | LANA-H2A inh | HNF4A DNA FP | FGF22 binding | E coli growth
O=C(CSc1ccc2c(c1)OCCO2)Nc1ccc(Br)cc1
    2.4 | -3 | 54 | 7.7 | 0.2 | . | 0.7
Cc1ccc(OCC(=O)NCCN2CCCC2)cc1
    3.9 | -4 | -1 | 0.7 | 2.2 | . | 0.65

# An excerpt from further up, for reference:
# Values run as follows: UCH37 inh | B2AR ag | ALR H2O2 inh | LANA-H2A inh | HNF4A DNA FP | FGF22 binding | E coli growth
Cc1nc(C)c(C(=O)NNC(=O)Nc2ccc(Cl)cc2)s1
    1.9 | -3 | 58 | -1.3 | 0.7 | i | 0.66
CN1CCN(C(=O)CN(C)S(=O)(=O)c2ccc(F)cc2)CC1
    2.4 | -1 | -8 | -10 | 2.9 | i | 0.66
Cc1nnc(NC(=O)CSc2nnc(-c3ccccc3)n2C)s1
    1.8 | 3 | -6 | 1.1 | -1.2 | i | 0.68
O=C(CCC(=O)N(c1ccccc1)C(C(=O)NC1CCCC1)c1ccncc1)Nc1cccnc1 (stereo unspecified)
    3.9 | -1 | -3 | 1.6 | -3.0 | . | 0.72

# Screening results as filed in PubChem BioAssay.

# Some of the compounds tested; count on the stated rates, not on these rows.
